FGF22 binding: binders of recombinant human FGF22 by thermal shift; Q9HCT0; SYPRO orange fluorescence; percent of sucrose octasulfate shift, DMSO zero; 1.5% of 340,000 active; calls only at 9.99 µM;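 active = melting point raised past a set limit in the mean and every replicate; inconclusive = no clear call; three in four hits are not shown here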
Target sequence (Q9HCT0 whole entry, looked up): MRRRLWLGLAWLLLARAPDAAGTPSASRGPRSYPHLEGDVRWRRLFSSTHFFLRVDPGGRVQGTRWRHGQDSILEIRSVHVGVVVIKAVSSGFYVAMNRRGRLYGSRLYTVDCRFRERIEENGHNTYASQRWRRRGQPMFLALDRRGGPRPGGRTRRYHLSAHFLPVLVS
AF4-AF9 inh: blocks AF4 peptide binding to human AF9. P42568. AID 651704. AlphaScreen, biotin-AF4 peptide binding to FLAG-AF9. inhibition, % at 10 µM. 0.47% of 350,000 active;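 active = every replicate reaching a set inhibition limit, whatever the replicate mean, cut at about 25% in these data; inconclusive = mean inhibition reaches that limit but some replicates miss it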;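 note: 0% = plate neutral control median and 100% = total signal loss; the record names both 10 and 1 µM as test concentration; the first replicate is given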
Target sequence (P42568 whole entry, looked up): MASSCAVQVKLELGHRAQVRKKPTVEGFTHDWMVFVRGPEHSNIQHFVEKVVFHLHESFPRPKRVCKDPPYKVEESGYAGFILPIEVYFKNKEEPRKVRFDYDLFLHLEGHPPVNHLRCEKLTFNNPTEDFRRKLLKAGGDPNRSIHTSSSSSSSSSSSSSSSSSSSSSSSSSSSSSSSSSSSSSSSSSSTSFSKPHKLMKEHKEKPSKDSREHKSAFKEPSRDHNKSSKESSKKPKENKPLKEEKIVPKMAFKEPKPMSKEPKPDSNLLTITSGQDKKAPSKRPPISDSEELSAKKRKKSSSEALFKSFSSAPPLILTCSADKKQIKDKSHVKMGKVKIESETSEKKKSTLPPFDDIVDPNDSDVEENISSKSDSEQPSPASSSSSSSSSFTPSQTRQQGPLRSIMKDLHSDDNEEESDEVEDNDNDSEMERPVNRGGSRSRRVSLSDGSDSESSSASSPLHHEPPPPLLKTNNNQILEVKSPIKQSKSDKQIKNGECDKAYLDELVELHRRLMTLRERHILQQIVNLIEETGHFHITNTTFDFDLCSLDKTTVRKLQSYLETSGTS
Ecoli rRNA inh: selective bacterial rRNA inhibition in E. coli | E. coli WT GFP vs humanized-ribosome RFP mutants, fluorescence, 24 h; active compounds read low; DMSO median 0, no signal -100 | GFP signal change (wild-type ribosome), % (no concentration beside the values) | 1.6% of 350,000 active;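 active = significant combined selectivity score with lowered wild-type GFP, culture density cut under 30%, mutant RFP and density less affected; inactive = any of these conditions unmet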; note: one replicate is shown; some compounds called inactive have numbers as strong as hits
Beta apoptosis: beta cell apoptosis inhibition; 0.8% of 300,000 active; protection from apoptosis, % (no concentration beside the values); INS-1E cytokine-induced death, ATP luminescence, 48 h; percent of positive-control rescue, neutral wells zero;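 active = all replicates at 75% or more, or half of them and the mean; inconclusive = half reach 75% but not the mean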;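 note: 0% = cytokine-treated negative control wells and 100% = positive control rescue; higher means more ATP so stronger rescue from cytokine killing; wells of about 40 µL received 100 nL stock; the first replicate is given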
T cruzi repl: blocks replication of Trypanosoma cruzi; T. cruzi beta-gal in NIH3T3, luminescence, 90 h; inhibition, % (test concentration not listed); 1.4% of 300,000 active; AID 1885;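 active = mean inhibition across valid replicates above about 55%, limit read from the data; inconclusive = mean below that limit but half or more replicates reach it; inactive = mean below it, under half of replicates reach it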;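 note: signal also drops with host cell toxicity which is not excluded here; 0% = plate median of DMSO wells and 100% = zero luminescence signal; higher percent means less beta-gal luminescence so fewer parasites; stock transfer was 50 nL into about 50 µL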
UCH37 DUB inh: inhibitors of human deubiquitinating enzyme UCH37 | Q9Y5K5 | purified proteasome/UCH37, Ub-AMC cleavage fluorescence | inhibition, % (test concentration not listed) | 0.33% of 330,000 active;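 active = mean of two replicates above 20%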;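 note: 0% = compound-free wells with enzyme and 100% = wells lacking proteasome; stock transfer was 100 nL into about 20 µL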
Target sequence (Q9Y5K5 whole entry, looked up): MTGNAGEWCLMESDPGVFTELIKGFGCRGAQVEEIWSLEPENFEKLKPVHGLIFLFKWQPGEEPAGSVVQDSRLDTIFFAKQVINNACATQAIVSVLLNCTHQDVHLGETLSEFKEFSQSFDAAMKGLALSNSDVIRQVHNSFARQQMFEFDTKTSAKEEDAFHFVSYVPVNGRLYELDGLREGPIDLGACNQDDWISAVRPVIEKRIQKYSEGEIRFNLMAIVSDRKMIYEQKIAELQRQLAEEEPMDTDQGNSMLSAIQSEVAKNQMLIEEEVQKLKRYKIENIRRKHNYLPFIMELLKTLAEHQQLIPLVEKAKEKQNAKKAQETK
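Schedule: 30 min plus 25 min, room temperature / Material: human UCH37 within purified proteasomes / Technique: AMC fluorescence intensity at 355/460 nm / Buffer or medium: pH 7.4 Tris-HCl (50 mM) with ovalbumin, ATP-MgCl2, DTT / Controls: wells without proteasome as full block, compound-free enzyme plus substrate as uninhibited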
Ecoli growth: blocks Escherichia coli growth; OD600, 23 h; active compounds read low; OD600 absorbance (concentration not given with the values); 0.21% of 330,000 active; AID 1053175;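 active = OD600 absorbance below the run mean of sample wells minus 3.6 SD, in any replicate, cut at about 0.56 in these data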;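 note: stock transfer was 300 nL into about 60 µL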
A1 inh: inhibitors of the anti-apoptotic protein A1, read as caspase activation; AID 2462; 0.066% of 330,000 active; MEF A1-2A-BIM cells, Caspase-Glo 3/7 luminescence, 3 h; percent of clofoctol response, vehicle zero; caspase activation, % (no concentration beside the values);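 active = over half of replicate activation scores above 10%, or exactly half above 10 with the replicate mean above 10; inconclusive = replicate mean below 10 yet half the replicates above 10; inactive = over half of replicates below 10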;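 note: wells of about 30 µL received 50 nL stock; many hits fall short of the cut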
Ecoli rRNA inh OD600: also measured in Ecoli rRNA inh; calls as there; OD600 change, %; measured here: OD600 growth;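 optical density of the mix in the first replicate; 0 = DMSO median and -100 = no signal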
Ecoli rRNA inh RFP: also measured in Ecoli rRNA inh; calls as there; RFP signal change, %; measured here: RFP humanized mutant strains;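 first replicate; 0 = DMSO median and -100 = no signal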
Starred values were filed as active, the others as inactive; i = inactive; ? = inconclusive; · = not tested or not shown. A portion of the library, so the mix of outcomes need not match the whole.

SMILES | FGF22 binding | AF4-AF9 inh | Ecoli rRNA inh | Ecoli rRNA inh OD600 | Ecoli rRNA inh RFP | Beta apoptosis | T cruzi repl | UCH37 DUB inh | Ecoli growth | A1 inh
O=C(CSc1nnc(NC(=O)c2c(F)cccc2F)s1)NC1CCCCC1 | i | 0.0 | -6 | -14 | -2.1 | -2 | 3 | 2.8 | 0.7 | 0.4
Fc1c(CSC(=S)N2CCOCC2)cccc1CSC(=S)N1CCOCC1 | i | · | 2 | 4 | 2.4 | 0 | 19 | 1.1 | 0.69 | 0.8
C#CCOCCOCCOCCNc1nc(N2CCN(C(=O)[C@H](CCC(=O)O)n3cc(C(N)CC(C)C)nn3)CC2)nc(N2CCN(C(=O)[C@H](CCC(=O)O)n3cc(C(N)CC(C)C)nn3)CC2)n1 (stereo not given in full) | · | · | · | · | · | -2 | -22 | 5.0 | · | 0.5
Cc1cc(S(=O)(=O)N2CCN(CC(=O)NCCc3cccs3)CC2)ccc1Br | i | 2.7 | -24 | -56 | 1.0 | -7 | · | 3.9 | 0.65 | 0.2
CCN(CC)CCNC(=O)C(=O)Nc1ccc(C(=O)OC)cc1 | i | 3.1 | 14 | 8 | 0.0 | -1 | -3 | 5.9 | 0.68 | 0.1
Cc1cc(Nc2ccc(C(=O)O)cc2)n2nc(C)nc2n1 | i | -0.2 | 5 | 4 | -1.5 | 4 | -6 | 1.5 | 0.68 | 0.2
CC(C)NC(=O)CS(=O)(=O)c1ccccc1 | i | -5.7 | 22 | 18 | 0.5 | 0 | -11 | 0.5 | 0.7 | 0.5
COc1ccc(-c2sc(Nc3ccccc3)n[n+]2C)c(C)c1C | i | -3.6 | -24 | -30 | -9.1 | -4 | 0 | 0.9 | 0.72 | -1.4
COCC(C)n1c(SCC(=O)NNC(=O)c2ccc(F)cc2)nc2ccccc2c1=O (stereo not given) | i | 4.7 | -2 | -8 | -7.9 | -3 | 4 | 4.6 | 0.66 | 2.0
COc1cc(Cl)c(S(=O)(=O)N2CC(C)OC(C)C2)cc1Cl (stereo not given) | · | · | · | · | · | -5 | -11 | -0.1 | 0.71 | -0.3
CCOC(=O)C1CCCN(C(=O)c2cc(Nc3ccc(OC)cc3)nc3ccccc23)C1 (stereo not given) | · | · | · | · | · | 2 | 3 | -1.7 | 0.69 | 0.0
COc1ccc2oc(=O)c(C(=O)Nc3ccccc3C)cc2c1 | i | 1.3 | 9 | 12 | -0.3 | · | -1 | 4.3 | 0.68 | -4.5
O=C(Nc1ccccc1C(=O)Nc1ccccn1)c1ccc([N+](=O)[O-])cc1 | i | 0.9 | 13 | 13 | 1.5 | -3 | 19 | 8.1 | 0.71 | -1.3
O=C(Nc1cc(F)cc(F)c1)c1sc(Cl)nc1-c1ccccc1 | i | -0.7 | 0 | 7 | -3.6 | -4 | -11 | 1.5 | 0.7 | 0.5
CCC(C(=O)OCC(=O)C1(O)CCC2C3CCC4=CC(=O)CCC4(C)C3C(O)CC21C)C(C)C (stereo not given) | i | 0.9 | 11 | -15 | -0.1 | · | · | -1.3 | 0.66 | ·
COc1ccc(OCCCC(=O)Nc2ccc(N3CCCCC3)cc2)cc1 | i | -2.2 | 1 | 8 | 3.1 | -14 | 11 | 1.1 | 0.68 | ?
CCCc1nnc(SCC(=O)NC2CCCCC2)n1CCOC | i | -1.7 | 10 | 14 | -1.6 | -3 | 1 | 4.7 | 0.61 | -0.4
O=C(COC(=O)/C=C/c1ccccc1Cl)NC1CCCCCC1 | i | -0.2 | 8 | 7 | 3.9 | -2 | -18 | 3.9 | 0.71 | 0.1
Cc1cccc(CN2CCC(CNC(=O)Nc3ccc(F)c(Cl)c3)CC2)c1 | i | 9.2 | -42 | -70 | 15 | 13 | 46 | 5.4 | 0.59 | -1.0
CSc1nnc(C)c(/C=C/Nc2ccc(Cl)cc2)n1 | · | · | · | · | · | 2 | 17 | 0.2 | 0.74 | -0.3
O=C(Cn1ccccc1=O)Nc1ccc(Cl)c(S(=O)(=O)N2CCCCC2)c1 | i | 0.5 | 9 | 5 | 2.1 | -5 | · | 1.2 | 0.67 | -0.8
NC(=O)c1ccc(N=Nc2c(-c3ccccc3)[nH]n(-c3ccccc3)c2=O)cc1 | i | 1.7 | 25 | 21 | 1.7 | 0 | 10 | -0.4 | 0.71 | -0.5
CN1C[C@@H]2[C@@H]3C(=O)N(Cc4ccccc4)C(=O)[C@@H]3[C@](Cc3ccccc3)(C1=O)N2C(=O)c1ccc(F)cc1 | i | 0.4 | -4 | -4 | -4.7 | · | · | 3.9 | · | ·
C=CCNCc1ccc(C(=O)NCCCCCCC)cc1[N+](=O)[O-] | i | 0.6 | 3 | -3 | -7.3 | 3 | 23 | 0.5 | 0.68 | 0.3
COc1ccc(-n2c(=O)cc(N3CCCCCC3)[nH]c2=O)cc1 | · | · | · | · | · | 2 | -26 | 4.0 | 0.67 | 0.9
CNC(=S)N1N=C(c2ccc(OC)cc2)CC1c1ccc(Cl)cc1Cl (stereo not given) | i | 4.1 | 12 | -1 | -1.0 | · | ? | -2.2 | 0.68 | 0.2
COc1ccc(C(CC(=O)O)NC(=O)COc2ccccc2)cc1OC (stereo not given) | · | · | · | · | · | -8 | -1 | -0.1 | 0.71 | 1.2
O=C(CNS(=O)(=O)c1ccc(F)cc1)N1CCCCCC1 | i | -1.2 | 12 | 2 | 0.2 | -1 | 6 | 1.9 | 0.66 | 0.2
COc1ccccc1C(=O)NC(=O)Nc1cccc(Cl)c1 | i | -6.0 | 6 | 16 | -0.4 | -4 | 10 | 2.1 | 0.65 | -7.5
COc1ccc(-c2cn(CCC(=O)O)c(-c3ccncc3)n2)cc1 | i | 2.5 | 2 | 1 | -2.5 | -1 | · | 0.8 | 0.69 | 0.8
CN(C)S(=O)(=O)c1ccc(F)c(C(=O)Nc2ccccc2C(=O)NC2CC2)c1 | i | 0.4 | 6 | -2 | -0.7 | · | · | 3.0 | 0.69 | ·
CCCCC1(CC)C(=O)NC(=O)NC1=Nc1ccc(OC)cc1 (stereo not given) | · | · | · | · | · | 3 | -15 | 3.2 | 0.7 | 0.9
CC(C)c1nc2scc(-c3ccc(Cl)cc3)c2c(=O)n1N | i | -0.1 | -30 | -52 | -6.8 | 2 | -1 | 1.9 | 0.7 | -0.6
O=C1CC2(CCN(C(=O)c3ccc(Cl)cc3)CC2)Oc2ccccc21 | i | -0.5 | -4 | -15 | -1.5 | -2 | 9 | -35 | 0.64 | 1.3
Cc1ccc(NC2=NCC(=O)N2C2CCCC2)cc1C | i | 2.1 | -3 | -3 | -6.5 | -6 | 0 | 1.5 | 0.66 | -0.8
COc1cc(CC(=O)OCC(=O)NCC(C)C)cc(OC)c1OC | i | -1.8 | 5 | -1 | -5.5 | -3 | 0 | -0.2 | 0.64 | 0.5
O=C(CONS(=O)(=O)c1ccc(Cl)cc1)NCCNc1ncc(C(F)(F)F)cc1Cl | i | -2.8 | -3 | 8 | -0.2 | 4 | -2 | 5.7 | 0.7 | 0.8
COC(=O)c1c(NC(=O)COC(=O)c2ccccc2O)sc2c1CCCCC2 | i | -1.0 | 0 | 2 | 2.0 | 2 | 2 | -1.6 | 0.7 | -0.3
Fc1ccc(CNC(=S)NC2CCCCC2)cc1 | i | 0.4 | -5 | -10 | -4.6 | 7 | -6 | 1.1 | 0.67 | 0.2
CCN(CC(=O)Nc1ccc2c(c1)OCCO2)C(=O)/C=C/c1cccc(OC)c1OC | i | -0.6 | -4 | -6 | -0.6 | -2 | 24 | -3.7 | 0.61 | -0.2
COc1ccc2c(c1)oc(=O)c1ccccc12 | i | -3.9 | -1 | 9 | -4.1 | -1 | 0 | -165 | 0.67 | 0.1
O=C(COC(=O)c1cc2ccccc2cc1O)c1ccccc1 | i | -1.9 | -1 | 4 | 0.9 | -11 | -9 | -0.6 | 0.72 | -0.1
N#Cc1ccccc1OCC(=O)Nc1ccccc1C(=O)NC1CC1 | i | 11 | 5 | -6 | -0.4 | -2 | -1 | 3.2 | 0.68 | -2.2
O=C(Nc1ccccc1)c1ccc(CSc2ccccn2)cc1 | · | · | · | · | · | -1 | 7 | 0.4 | 0.68 | -7.4
COc1ccc(-c2nc(CS(=O)CC(=O)NCc3ccc(C)cc3)c(C)o2)cc1OC (stereo not given) | · | · | · | · | · | -10 | -3 | 2.3 | 0.68 | 0.0
Cn1c(NC(=O)c2ccccc2F)c(-c2cccs2)c(=O)c2ccccc21 | i | -3.6 | -1 | 3 | -0.3 | -2 | -9 | 8.5 | 0.68 | 0.8
Cc1ccc(S(=O)(=O)Nc2nc(C)c(C(=O)NN)s2)cc1 | i | -5.4 | -4 | -8 | -7.4 | -3 | -4 | 4.8 | 0.74 | 0.8
CN(CCCC(=O)NCc1ccc2c(c1)OCO2)S(=O)(=O)c1ccc([N+](=O)[O-])cc1 | i | 3.7 | 9 | 11 | -1.8 | -5 | 40 | -1.8 | 0.7 | 0.0

As entered above:
`Fc1ccc(CNC(=S)NC2CCCCC2)cc1` @ UCH37 DUB inh: 1.1
`COc1ccc2c(c1)oc(=O)c1ccccc12` @ Ecoli rRNA inh OD600: 9
`CCN(CC(=O)Nc1ccc2c(c1)OCCO2)C(=O)/C=C/c1cccc(OC)c1OC` @ Ecoli rRNA inh RFP: -0.6

A second format for three compounds above:
SMILES	FGF22 binding	AF4-AF9 inh	Ecoli rRNA inh	Ecoli rRNA inh OD600	Ecoli rRNA inh RFP	Beta apoptosis	T cruzi repl	UCH37 DUB inh	Ecoli growth	A1 inh
COc1ccccc1C(=O)NC(=O)Nc1cccc(Cl)c1	i	-6.0	6	16	-0.4	-4	10	2.1	0.65	-7.5
COc1ccc(-c2cn(CCC(=O)O)c(-c3ccncc3)n2)cc1	i	2.5	2	1	-2.5	-1	·	0.8	0.69	0.8
CN(C)S(=O)(=O)c1ccc(F)c(C(=O)Nc2ccccc2C(=O)NC2CC2)c1	i	0.4	6	-2	-0.7	·	·	3.0	0.69	·

New compounds follow
SMILES | FGF22 binding | AF4-AF9 inh | Ecoli rRNA inh | Ecoli rRNA inh OD600 | Ecoli rRNA inh RFP | Beta apoptosis | T cruzi repl | UCH37 DUB inh | Ecoli growth | A1 inh
CCOC(=O)/C=C/c1ccc2c(c1)S(=O)(=O)N(c1cccc(OC)c1)[C@H]2CC(=O)OCC | i | · | -8 | -14 | 1.2 | 1 | 27 | 3.3 | · | 0.5
COCCN1C(=O)N(c2cccc(C)c2)C(=O)C1CC(=O)Nc1cc(OC)cc(OC)c1 (stereo not given) | i | -5.9 | 3 | -3 | 0.5 | 1 | -13 | 2.7 | 0.67 | 0.2
CCOC(=O)c1csc(NC(=O)CN2CCN(C)CC2)n1 | i | 0.3 | 7 | 21 | 2.7 | -12 | -6 | 4.3 | 0.65 | -0.4
CC1CC(C)CN(C/C=C/c2ccccc2[N+](=O)[O-])C1 (stereo not given) | · | · | · | · | · | -3 | 12 | 6.5 | 0.68 | 0.6
Cc1ccc2nc(C(F)(F)F)c(C#N)c(N)c2c1 | i | -5.8 | -11 | -22 | -9.1 | -34 | 19 | 1.5 | 0.65 | -0.2
